D2 potentiator: potentiates the human D2 dopamine receptor allosterically | P14416 | DiscoveRx D2 beta-arrestin cells, luminescence, 90 min; 100% = 57 uM dopamine signal | potentiation, % (test concentration not listed) | hit rate 0.23% among 360,000 | AID 624464; active = potentiation of 50% or more; inconclusive = 30% to 50%; inactive = 30% or less;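 further: compound concentration not given in the record; tested on top of an EC20 dose of dopamine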
Target sequence (P14416 whole entry, looked up): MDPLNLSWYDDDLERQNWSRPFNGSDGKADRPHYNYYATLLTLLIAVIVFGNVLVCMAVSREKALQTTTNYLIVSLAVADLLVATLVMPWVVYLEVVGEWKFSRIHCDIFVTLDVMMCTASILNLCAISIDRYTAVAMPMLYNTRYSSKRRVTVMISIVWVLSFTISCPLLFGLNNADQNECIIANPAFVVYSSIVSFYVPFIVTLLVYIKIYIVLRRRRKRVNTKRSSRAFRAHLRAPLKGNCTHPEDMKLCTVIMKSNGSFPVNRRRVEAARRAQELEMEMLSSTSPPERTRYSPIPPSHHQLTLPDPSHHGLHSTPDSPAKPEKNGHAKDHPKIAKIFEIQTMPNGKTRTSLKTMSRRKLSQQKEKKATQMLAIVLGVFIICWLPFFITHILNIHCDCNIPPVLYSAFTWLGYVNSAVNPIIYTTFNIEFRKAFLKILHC
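PathHunter beta-arrestin assay in DiscoveRx D2 cells. Compounds were added with an EC20 of dopamine (50 nM final) for 90 min at 37 deg C. Luminescence was read 1 h after detection reagent, with 57 uM dopamine as the EC100 control.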
TRPML1 ag: human mucolipin-1 channel agonism. Q9GZU1. TRPML1-expressing cells, Ca2+ dye fluorescence, FDSS; host cell line not named in the record; reference of the full effect not given here. hit rate 0.12% among 410,000. activation, % (no concentration beside the values); in the data active = activation above about 50%; inconclusive = about 30% to 50%; inactive = below about 30%; further: 0% is about no effect; the text of the record puts the active cut at 80%
Target sequence (Q9GZU1 whole entry, looked up): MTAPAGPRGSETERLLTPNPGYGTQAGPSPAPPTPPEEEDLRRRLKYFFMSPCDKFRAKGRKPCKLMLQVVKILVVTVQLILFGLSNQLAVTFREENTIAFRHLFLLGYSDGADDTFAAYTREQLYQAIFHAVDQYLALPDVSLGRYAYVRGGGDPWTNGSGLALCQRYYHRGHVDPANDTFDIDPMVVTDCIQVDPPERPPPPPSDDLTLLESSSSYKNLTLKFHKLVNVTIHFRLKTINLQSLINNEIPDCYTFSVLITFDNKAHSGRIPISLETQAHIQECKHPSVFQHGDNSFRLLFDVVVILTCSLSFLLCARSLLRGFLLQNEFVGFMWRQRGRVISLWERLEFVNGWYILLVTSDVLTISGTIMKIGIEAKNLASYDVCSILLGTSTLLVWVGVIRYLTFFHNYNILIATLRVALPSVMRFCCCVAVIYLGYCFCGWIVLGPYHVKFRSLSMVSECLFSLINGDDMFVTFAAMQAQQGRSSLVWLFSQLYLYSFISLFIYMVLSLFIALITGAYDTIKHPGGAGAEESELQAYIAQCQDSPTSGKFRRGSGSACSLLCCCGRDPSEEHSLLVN
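Kinetic FDSS Ca2+ read in Tet-induced TRPML1-DL cells (ABD Ca8 dye plus quencher, 45-90 min RT loading): baseline, then compound, then 110 s agonist window; EC80 agonist 54-4 at 4uM final added afterwards for a 110 s antagonist window.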
TRPML1 inh: blocks the human TRPML1 channel | activity change, negative = inhibition, % (no concentration beside the values) | AID 624415 | Q9GZU1 | TRPML1-inducible cells, Ca2+ dye fluorescence, FDSS; hits give low values; inhibition of EC80 agonist-evoked calcium signal | hit rate 0.02% among 390,000; in the data active means activity change below about -50%; inconclusive means about -30% to -50%; inactive means above about -30%;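 further: stimulus is agonist 54-4 at its EC80 concentration; on the % scale 0 is the no-effect control and ±100 the full control effect; compound concentration not given in the record; the text of the record puts the active cut at -80%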
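Tet-induced TRPML1-DL cells loaded with Ca8 no-wash calcium dye were read kinetically on FDSS. Compound addition was followed by EC80 agonist 54-4 (4 uM final); inhibition was read over 110 s.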
D2 ag: agonists of human D2 dopamine receptor (beta-arrestin). P14416. DiscoveRx PathHunter D2 beta-arrestin, luminescence, 90 min; 100% = 57 uM dopamine signal. activation, % (concentration not given with the values). hit rate 0.084% among 360,000. AID 624465; in the data active = activation above about 40%; inconclusive = about 15% to 40%; inactive = below about 15%; further: compound concentration not given in the record; the text of the record calls up to 30% inactive
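Agonist mode: compounds alone added to overnight-plated D2 PathHunter cells for 90 min at 37 C, with 57 uM final dopamine (EC100) defining full response. Beta-arrestin recruitment detected by chemiluminescent reagent, read after 1 h at ambient temperature.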
Six1-Eya2 inh: blocks human Six1 binding to Eya2; activity change, % (no concentration beside the values); hit rate 0.56% among 360,000; AID 651725; Q15475+O00167; AlphaScreen GST-Six1/His-Eya2 binding, biochemical; hits give low values; control for the full effect not named in the record; in the data active = activity change below about -65%; inconclusive = about -30% to -65%; inactive = above about -30%; further: on the % scale 0 is the no-effect control and ±100 the full control effect; compound concentration not given in the record
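Compounds are tested against tagged Six1 and Eya2 proteins bridged by glutathione donor and nickel acceptor beads; after a one-hour incubation at 37 °C without light, AlphaScreen emission is recorded.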
PINK1 modulator: PINK1 expression modulation; PINK1 immunofluorescence, high-content cytometry, 24 h; Potency, µM (titrated, usually from 76.6 µM), without a hit: top-dose activation (PINK1 increase), hits mostly activators; hit rate 0.2% among 410,000; AID 624263; active = well fitted activation curve with a large enough effect; inconclusive = small, poorly fitted or top-dose-only effect; inactive = flat fitted curve, though single readings scatter; cell line not stated here;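 further: potency means the concentration at half of the fitted maximal effect; % of control where 0% means no effect; nearly all actives have a fitted effect of over 65% in size; a mitochondrial uncoupler was the plate control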
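Readout is PINK1 immunofluorescence, quantified alongside mitochondrial, cell and nuclear markers by laser-scanning microplate cytometry. Cells from a stable line were exposed to compound titrations (5 concentrations) for 24 hours, with CCCP controls.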
* hit, by the source's call; ? = inconclusive; . = not tested or not shown; [ ] = another dose, or the depositor's remark. Hits appear at their usual frequency. About 1% of those tested had a hit in this group.

The first two compounds as a preview:
SMILES	D2 potentiator	TRPML1 ag	TRPML1 inh	D2 ag	Six1-Eya2 inh	PINK1 modulator
CCC(=O)N(Cc1cc2cc(OC)ccc2[nH]c1=O)c1cccc(C)c1	-3.5	0.4	9.0	-3.1	-2.3	-0.1%
CCN(Cc1ccccc1)S(=O)(=O)c1ccc(F)c(C(=O)Nc2cc(C)ccc2OC)c1	.	1.8	-16.7	.	.	1.0%

The list itself, repeating the preview:
SMILES	D2 potentiator	TRPML1 ag	TRPML1 inh	D2 ag	Six1-Eya2 inh	PINK1 modulator
CCC(=O)N(Cc1cc2cc(OC)ccc2[nH]c1=O)c1cccc(C)c1	-3.5	0.4	9.0	-3.1	-2.3	-0.1%
CCN(Cc1ccccc1)S(=O)(=O)c1ccc(F)c(C(=O)Nc2cc(C)ccc2OC)c1	.	1.8	-16.7	.	.	1.0%
CCOC(=O)Cn1nnnc1CN(Cc1ccc(OC)cc1)Cc1cc2cc(C)cc(C)c2[nH]c1=O	-24.0	-0.1	5.7	-4.1	-0.9	-2.8%[38.3 µM]
Cc1[nH]c2ccccc2c1C(=O)COC(=O)c1c(-c2ccccc2)noc1C	-1.8	2.1	6.2	2.8	-1.9	1.3%
CC(=O)c1ccc(S(=O)(=O)N2CCN(C)CC2)cc1	2.6	0.4	-7.6	-1.9	6.3	-1.0%
N#CC1=C(SCC(=O)c2cc3ccccc3oc2=O)NC(=O)C(C#N)C12CCCC2 (stereo unspecified)	-10.0	4.7	13.2	-4.7	1.5	0.3%
COc1ccccc1NC(=O)Nc1ccnn1Cc1cccs1	-29.1	0.8	-21.2	-4.3	-3.1	-0.2%
COc1ccc(-c2nc(S(=O)(=O)c3ccc(Cl)cc3)c(NCc3ccccc3)o2)cc1	.	2.1	-1.2	.	.	1.3%
Cc1ccc(C)c(-n2nnnc2SCC(=O)Nc2c(C)n(C)n(-c3ccccc3)c2=O)c1	-10.2	-0.3	31.8	-4.5	-0.2	-1.8%
CCOC(=O)c1cnn(-c2cc(C(C)(C)C)nc3c(-c4ccccc4)c(C)nn23)c1N	8.3	-0.5	1.6	0.5	-5.3	?
CCN(CC)c1ccc(C2C(C(C)=O)C(=O)CC(C)(O)C2C(C)=O)cc1 (stereo unspecified)	-4.2	0.2	-19.5	-3.4	3.1	-1.6%
COc1cc(CNCc2ccccn2)ccc1OCc1cccc(Cl)c1	-16.7	0.4	12.6	5.3	?	1.3%[38.3 µM]
CC(C)CN(c1ccccc1)S(=O)(=O)c1nnc(NC(=O)C(C)C)s1	-1.3	-0.3	-11.8	-4.5	4.2	-0.8%
O=S1(=O)[C@H]2C[C@@H]3C=C[C@]2(CN1Cc1ccc(C(F)(F)F)cc1)O3	-26.0	-0.7	-11.9	2.1	5.5	2.5%
CCOC(=O)C(Cc1ccccc1)NC(=O)CNC(C)=O (stereo unspecified)	2.3	0.6	5.6	-1.2	3.6	-2.2%
Cc1c(NC(=O)c2ccc(S(=O)(=O)N3CCOCC3)cc2)c(=O)n(-c2ccccc2)n1C	0.6	-0.6	25.5	-3.3	9.1	-1.2%
CCOc1cc(/C=N/NC(=O)c2cccc(S(=O)(=O)N3CCCC3)c2)ccc1OCC(=O)N(C)C	5.1	2.4	10.2	3.7	0.5	-3.5%
COc1cncc(-c2cnc3sc(NCCc4ccccn4)nn23)c1	-0.6	-1.3	.	13.4	?	-1.4%
C[C@H](CO)N1C[C@H](C)[C@H](CN(C)Cc2ccncc2)Oc2ccc(NC(=O)Nc3ccc(C(F)(F)F)cc3)cc2CC1=O	-16.9	-0.7	-4.6	0.4	-7.7	22.7%
O=C(CN(C(=O)CCC(=O)Nc1nccs1)c1cccc(F)c1)NCc1ccc(F)cc1	-3.2	0.7	26.8	-1.1	0.8	12.7%
CCCNC(=O)Cn1nc(C(F)(F)F)c2c1CCCC2	-1.6	-1.5	-3.3	-3.3	-2.5	0.2%
COc1ccc(-c2c(Sc3ccccc3)c3cc(-c4ccc(OC)c(F)c4)ccc3n2C)cc1	.	2.6	.	.	4.5	0.0%
O=C(CCCN1C(=O)c2ccccc2C1=O)NCCN1C(=O)S/C(=C\c2cccs2)C1=O	6.6	3.2	20.8	2.2	-2.6	-0.1%
O=C(Nc1ccccc1Cl)c1cc(S(=O)(=O)N2CCCC(C(=O)O)C2)ccc1F (stereo unspecified)	-13.2	0.2	-9.2	0.3	-13.1	4.8%[38.3 µM]
Cc1ccc(S(=O)(=O)Nc2ccccc2C(=O)N2CCCCC2)cc1	-4.3	0.0	-14.9	1.9	9.4	-1.1%
CC(=O)NC(Cc1cc(C)ccc1C)C(=O)N1CCN(C(=O)c2ccccc2Br)CC1 (stereo unspecified)	-4.6	0.6	7.7	1.9	-11.9	2.4%
CCc1ccc(-c2n[nH]nc2C2=CC(=O)C[C@H](c3ccc(F)cc3)C2)cc1	.	.	.	-0.4	-4.4	8.8%
CN(C)CCNC(=O)c1c(NC(=O)c2ccccc2)sc2c1CCCC2	-8.8	.	.	4.7	-2.6	1.7%
CC(=O)N1N=C(c2cccc(Cl)c2)OC1c1cccc([N+](=O)[O-])c1 (stereo unspecified)	-5.3	-0.1	26.3	-4.2	-13.4	2.3%
Cc1c(CC(=O)NCCc2ccc(Cl)cc2)c(=O)oc2c(C)c3occ(C(C)(C)C)c3cc12	.	0.0	15.9	.	.	0.1%
O=C(Nc1ccc(Cl)cc1)N1CCOC12CCC1(CC2)OCCO1	-4.4	-1.1	5.3	-2.9	12.0	0.0%
CC(=O)Nc1ccc(N2C(=O)CSC2c2ccccc2)cc1 (stereo unspecified)	7.2	.	.	0.0	4.1	-0.4%
O=C(CN1C(=O)NC2(CCCCC2)C1=O)N1CCN(S(=O)(=O)c2ccc(F)cc2)CC1	-6.5	0.2	6.7	-7.0	1.0	1.3%
COc1ccc(C2Nc3ccccc3C(=O)N2NS(=O)(=O)c2ccccc2)cc1 (stereo unspecified)	-0.5	1.9	33.6	0.7	-2.4	5.0%
COCCN(C(=O)CSc1nc2ccccc2c(=O)n1CCOC)c1c(N)n(Cc2ccccc2)c(=O)[nH]c1=O	-15.2	0.7	-5.4	-2.7	-1.3	-0.1%
Cc1c(C(=O)Nc2ccccc2)sc2nc3n(c(=O)c12)CCCCC3	-5.4	0.7	-5.9	5.6	-6.6	-0.1%
COc1ccccc1CCNC(=O)c1cc2ccccn2n1	.	1.2	0.0	.	.	2.5%
Cc1ccccc1NC(=O)c1c(C)oc2ccc(O)c(CN3CCCC(C)C3)c12 (stereo unspecified)	.	-0.9	-17.5	.	.	1.2%
O=C(Nc1ccccc1Cl)[C@H](CSCc1ccccc1)N1Cc2ccccc2C1=O	.	0.6	26.7	.	.	1.0%
CCCOc1nc2c(c(=O)n(C)c(=O)n2C)n1CCC	-23.0	0.5	22.0	-3.0	6.5	.
CC(C)CC1NC(=O)N(CC(=O)Nc2ccccc2-c2ccccc2)C1=O (stereo unspecified)	5.9	0.1	9.0	0.0	5.5	0.7%
O=C(CC1NC(=O)NC1=O)Nc1ccccc1 (stereo unspecified)	-3.9	-0.1	-0.2	1.9	5.9	.
Cc1cc(C)n(CC(=O)N2c3ccccc3Sc3ccccc32)n1	-2.3	1.6	11.7	-3.6	-3.7	-1.7%
O=S(=O)(Nc1ccccc1N1CCOCC1)c1ccc(F)c(Cl)c1	-7.5	?	-18.6	4.8	10.7	4.0%
O=C(CC(=O)c1ccccc1)Nc1cccc([N+](=O)[O-])c1	-20.7	0.5	11.7	-5.9	-11.8	1.3%
CCc1ccccc1NC(=O)C1CCCC1	-0.1	2.1	-14.7	0.5	3.0	3.1%
C=CCN1CC(c2nc3ccccc3n2CCOc2ccccc2)CC1=O (stereo unspecified)	-11.3	0.3	8.3	-3.4	-5.5	0.7%
CCCCN=C1SC(C(=O)Nc2sc3c(c2C(=O)OC)CCC3)C(N)=C1C(=O)N1CCOCC1 (stereo unspecified)	-2.2	0.6	-1.2	2.9	15.2	13.4%
Cc1onc(-c2ccccc2Cl)c1C(=O)N1CCCCC1C(=O)O (stereo unspecified)	-11.1	-0.5	12.2	-4.7	-1.0	0.3%
COc1ccc(CCN(C)C(=O)CSc2nc3ccccc3c(=O)n2CC2CCCO2)cc1OC (stereo unspecified)	3.3	2.0	28.6	-3.8	-1.5	4.3%

Following part
SMILES	D2 potentiator	TRPML1 ag	TRPML1 inh	D2 ag	Six1-Eya2 inh	PINK1 modulator
O[C@H]1CN(CC2CCCCC2)[C@@H](c2ccc(Cl)cc2)C[C@@H]1n1cc(C2CC2)nn1	1.8	-0.5	-1.6	-10.0	-2.5	?
CCN1/C(=C2\C(=O)N(c3ccccc3)N=C2C)C=Cc2cc(C)ccc21	-0.5	0.2	8.9	-1.8	-1.0	-0.2%
CCC(=O)N1CCc2cc(S(=O)(=O)NC(CC(C)C)C(=O)Nc3cccc(C)c3C)ccc21 (stereo unspecified)	.	1.1	14.8	.	.	5.5%
CCCC(=O)N(CCN1CCOCC1)c1nc2c(F)cc(F)cc2s1	-15.3	0.5	2.2	-2.8	0.5	-0.2%
Cc1ccc(OCCSc2nc3ccccc3n2CC(=O)N2CCOCC2)cc1C	.	-0.2	-2.2	.	.	2.2%
COC(=O)CN1C(=O)S/C(=C/c2cc(C)n(C)c2C)C1=O	-4.6	-0.9	4.1	-2.8	-18.9	15.3%[38.3 µM]
CN(C)S(=O)(=O)c1cccc(-c2nnc(SCc3ccc4c(c3)OCCO4)o2)c1	-17.2	0.9	11.7	1.7	3.8	-0.1%
CCOC(=O)C1=C(CC)Nc2ccccc2N=C1NC(=O)c1cc(S(=O)(=O)N2CCOCC2)ccc1C	-1.1	0.9	-1.0	-4.8	-9.2	1.2%
COc1ccc(NC(=O)c2ccc(-c3ccccc3Cl)o2)cc1	-24.9	0.4	-5.3	-3.2	-2.6	2.6%
CC(CN1CCCCC1)OC(=O)c1ccccc1F (stereo unspecified)	-49.0	.	.	2.6	29.5	1.4%
CCCCCn1c(CN2CCCCC2C)nc2c1c(=O)n(C)c(=O)n2C (stereo unspecified)	8.2	-0.9	7.6	-3.4	3.3	1.0%
Cc1cc(NC(=O)c2ccccc2)ncc1NC(=O)c1cccs1	-2.7	0.5	9.0	2.4	3.1	0.2%
O=C(NC(=S)Nc1ccccc1Br)C1CC1	-8.7	0.9	-9.5	4.1	2.8	4.4%
CCc1ccccc1N(CC)C(=O)Cn1nc(Cc2ccncc2)c2ccccc2c1=O	.	1.1	8.5	.	.	0.9%
CCCCn1nnnc1C(c1cc2ccccc2o1)N(CCC#N)Cc1ccccc1 (stereo unspecified)	.	3.4	.	.	6.3	-0.6%
Cc1noc(C)c1S(=O)(=O)N1CCCC(C(=O)Nc2cccnc2)C1 (stereo unspecified)	-15.1	0.1	-6.7	-2.2	-0.1	1.0%
CCOC(=O)C1=C(COC(=O)c2ncc(Cl)c(Cl)c2Cl)NC(=O)NC1C (stereo unspecified)	8.9	-0.6	-17.2	-2.3	-2.0	5.1%
S=C1NCCOCCOCCOCCNC(=S)N2CCOCCOCCN1CCOCCOCC2	-7.1	0.3	-20.1	-4.2	-2.7	2.8%
CS(=O)(=O)c1nc(-c2ccc(F)cc2)cc(C(F)(F)F)n1	-20.3	2.4	-11.3	-11.2	-4.5	-2.0%
COc1ccc2oc(=N)c(C(=O)Nc3ccc(F)cc3)cc2c1	3.7	0.9	-7.2	-2.5	10.0	1.5%
